# Screening results from PubChem BioAssay.
# MLL AF4-AF9 inh = blocks AF4 peptide binding to human AF9; P42568; 350,000 tested, 0.47% active; inhibition, % at 10 µM; AID 651704; AlphaScreen, biotin-AF4 peptide binding to FLAG-AF9;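 active = every replicate reaching a set inhibition limit, whatever the replicate mean, cut at about 25% in these data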;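 note: 0% = plate neutral control median and 100% = total signal loss; the record names both 10 and 1 µM as test concentration; the first replicate is given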
# Target sequence (P42568 whole entry, looked up): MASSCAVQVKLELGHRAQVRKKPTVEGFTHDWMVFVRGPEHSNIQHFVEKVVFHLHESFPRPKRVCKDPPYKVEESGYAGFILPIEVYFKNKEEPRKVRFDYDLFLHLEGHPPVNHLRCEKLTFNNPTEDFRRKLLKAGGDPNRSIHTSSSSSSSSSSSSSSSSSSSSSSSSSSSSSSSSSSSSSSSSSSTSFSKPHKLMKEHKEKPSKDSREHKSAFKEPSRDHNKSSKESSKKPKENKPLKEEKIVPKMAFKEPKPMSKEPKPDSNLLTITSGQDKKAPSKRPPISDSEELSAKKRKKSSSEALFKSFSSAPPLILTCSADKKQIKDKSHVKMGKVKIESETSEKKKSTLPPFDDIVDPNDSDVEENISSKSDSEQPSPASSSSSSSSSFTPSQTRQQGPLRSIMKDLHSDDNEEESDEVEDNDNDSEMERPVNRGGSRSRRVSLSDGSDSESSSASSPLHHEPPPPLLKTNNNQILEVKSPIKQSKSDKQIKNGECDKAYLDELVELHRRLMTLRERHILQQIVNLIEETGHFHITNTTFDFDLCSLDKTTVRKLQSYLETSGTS
# T cruzi inh = T. cruzi replication inhibition; AID 1885; inhibition, % (test concentration not listed); 300,000 tested, 1.4% active; T. cruzi beta-gal in NIH3T3, luminescence, 90 h;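 active = mean inhibition across valid replicates above about 55%, limit read from the data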;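 note: signal also drops with host cell toxicity which is not excluded here; 0% = plate median of DMSO wells and 100% = zero luminescence signal; higher percent means less beta-gal luminescence so fewer parasites; stock transfer was 50 nL into about 50 µL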
# Ecoli rRNA inh = inhibitors of bacterial rRNA selective over humanized ribosomes; AID 720706; GFP signal change (wild-type ribosome), % (no concentration beside the values); E. coli WT GFP vs humanized-ribosome RFP mutants, fluorescence, 24 h; active compounds read low; DMSO median 0, no signal -100; 350,000 tested, 1.6% active;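 active = significant combined selectivity score with lowered wild-type GFP, culture density cut under 30%, mutant RFP and density less affected; inactive = any of these conditions unmet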; note: one replicate is shown; some compounds called inactive have numbers as strong as hits
# FGF22 binding = binders of recombinant human FGF22 by thermal shift; 340,000 tested, 1.5% active; SYPRO orange fluorescence; percent of sucrose octasulfate shift, DMSO zero; calls only at 9.99 µM; AID 651658; Q9HCT0;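 active = melting point raised past a set limit in the mean and every replicate; three in four hits are not shown here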
# Target sequence (Q9HCT0 whole entry, looked up): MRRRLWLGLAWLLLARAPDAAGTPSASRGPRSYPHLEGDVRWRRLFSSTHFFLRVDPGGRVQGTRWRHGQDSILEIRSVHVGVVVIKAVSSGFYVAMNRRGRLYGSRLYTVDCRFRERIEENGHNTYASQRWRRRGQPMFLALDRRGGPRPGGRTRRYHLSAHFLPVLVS
# Beta cell apopt = blocks beta cell apoptosis. AID 435005. INS-1E cytokine-induced death, ATP luminescence, 48 h; percent of positive-control rescue, neutral wells zero. 300,000 tested, 0.8% active. protection from apoptosis, % (test concentration not listed);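 active = all replicates at 75% or more, or half of them and the mean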;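 note: 0% = cytokine-treated negative control wells and 100% = positive control rescue; higher means more ATP so stronger rescue from cytokine killing; wells of about 40 µL received 100 nL stock; the first replicate is given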
# Ecoli growth = inhibitors of Escherichia coli growth | OD600 absorbance (test concentration not listed) | 330,000 tested, 0.21% active | OD600, 23 h; active compounds read low | AID 1053175;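 active = OD600 absorbance below the run mean of sample wells minus 3.6 SD, in any replicate, cut at about 0.56 in these data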;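 note: stock transfer was 300 nL into about 60 µL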
# Bfl-1 A1 inh = inhibitors of the anti-apoptotic protein A1, read as caspase activation. AID 2462. MEF A1-2A-BIM cells, Caspase-Glo 3/7 luminescence, 3 h; percent of clofoctol response, vehicle zero. caspase activation, % (concentration not given with the values). 330,000 tested, 0.066% active;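 active = over half of replicate activation scores above 10%, or exactly half above 10 with the replicate mean above 10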;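 note: wells of about 30 µL received 50 nL stock; many hits fall short of the cut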
# UCH37 inh = human UCH37 deubiquitinating enzyme inhibition | purified proteasome/UCH37, Ub-AMC cleavage fluorescence | inhibition, % (concentration not given with the values) | 330,000 tested, 0.33% active | AID 588478 | Q9Y5K5;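 active = mean of two replicates above 20%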;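 note: 0% = compound-free wells with enzyme and 100% = wells lacking proteasome; stock transfer was 100 nL into about 20 µL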
# Target sequence (Q9Y5K5 whole entry, looked up): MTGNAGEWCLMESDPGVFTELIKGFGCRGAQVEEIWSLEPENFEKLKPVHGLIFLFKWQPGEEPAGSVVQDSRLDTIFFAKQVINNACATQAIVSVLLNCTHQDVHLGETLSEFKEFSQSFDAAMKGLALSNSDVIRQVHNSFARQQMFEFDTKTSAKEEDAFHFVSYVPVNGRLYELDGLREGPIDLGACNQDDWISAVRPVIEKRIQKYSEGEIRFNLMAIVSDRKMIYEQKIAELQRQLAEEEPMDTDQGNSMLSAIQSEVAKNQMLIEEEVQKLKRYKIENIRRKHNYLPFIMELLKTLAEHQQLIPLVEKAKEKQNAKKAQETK
#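 Material: Human UCH37 enzyme supplied as purified proteasome complex | Schedule: 30 min preincubation with enzyme, 25 min cleavage at room temperature | Detection: AMC fluorescence 355/460 nm | Measure: % inhibition of Ub-AMC cleavage fluorescence | Controls: Wells without proteasome as full block, compound-free enzyme plus substrate as uninhibited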
# Ecoli rRNA inh OD600 = also measured in Ecoli rRNA inh; calls as there; OD600 change, %; measured here: OD600 growth;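 optical density of the mix in the first replicate; 0 = DMSO median and -100 = no signal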
# Ecoli rRNA inh RFP = also measured in Ecoli rRNA inh; calls as there; RFP signal change, %; measured here: RFP humanized mutant strains;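 first replicate; 0 = DMSO median and -100 = no signal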
# * hit, by the source's call; i = inactive; / = not tested or not shown. This is a subset; rates above refer to the full screens.
# The line under a structure holds: Ecoli rRNA inh	Beta cell apopt	UCH37 inh	FGF22 binding	T cruzi inh	Ecoli growth	Ecoli rRNA inh RFP	MLL AF4-AF9 inh	Bfl-1 A1 inh	Ecoli rRNA inh OD600
> COc1ccc(CC(=O)Nc2ccc(S(=O)(=O)Nc3onc(C)c3C)cc2)cc1OC
→ 6	-9	-0.3	i	3	0.6	0.0	-0.3	0.5	13
> NN(Cc1ccccc1)C(=S)Nc1ccc(Cl)c(Cl)c1
→ -17	-5	/	i	4	/	2.2	-0.7	0.5	-45
> Cc1cc(N2CCN(C(=O)c3ccco3)CC2)n2nc(-c3cccc(Cl)c3)cc2n1
→ /	/	-85	/	42	0.7	/	/	-0.1	/
> CC(C)NC(=O)CC(c1ccccc1)c1cc(Br)ccc1O (centres undefined)
→ -33	-3	-0.3	i	-5	0.73	2.2	2.9	0.8	-57
> CCCCCCC(=O)N(O)C1CC(=O)N(c2ccc(C)cc2)C1=O (centres undefined)
→ /	-12	5.6	/	9	0.67	/	/	-0.7	/
> COc1ccccc1NC(=O)C(=O)NCC1COc2ccccc2O1 (centres undefined)
→ -23*	/	-0.4	i	-9	0.68	3.0*	-77	0.3	-7.5*
> CC1=CC2=NC(=O)/C(=C\c3ccc(OC(=O)c4ccco4)cc3)C(=N)N2O1
→ /	-1	-6.1	i	-26	0.69	/	1.9	-1.6	/
> COC(=O)c1ccc(COc2ccc(/C=N/N3CCN(C)CC3)cc2)cc1
→ 11	4	/	i	48	/	0.9	8.2	0.4	9
> CCOC(=O)COc1nc(Nc2ccccc2C)nc(N(C)C)n1
→ /	-2	-2.5	/	-7	0.65	/	/	1.6	/
> O=S(=O)(c1cccs1)N1CCN(CCOc2ccccc2)CC1
→ 0	/	-0.5	i	/	0.62	-2.1	-4.8	/	-4
> CC(NC(=O)CN1C(=O)NC2(CCCCCCC2)C1=O)c1ccccc1 (centres undefined)
→ -2	-2	0.8	i	/	0.68	-1.9	1.1	-0.3	2
> CCOC(=O)C1=C(C)NC(=O)CC1c1cc2c(cc1[N+](=O)[O-])OCO2 (centres undefined)
→ 3	-2	2.5	i	-10	0.68	2.3	-9.4	0.0	6
> COc1ccc(C)cc1NC(=O)c1ccc(CN2CCN(c3ccccc3)CC2)cc1
→ /	-5	-0.2	/	32	0.69	/	/	0.2	/
> CC(C)(C)N(Cc1ccccc1)C(=O)COC(=O)CN1C(=O)C2CC=CCC2C1=O (centres undefined)
→ 10	/	0.5	i	-10	0.71	-0.3	1.1	-0.2	16
> Cc1noc(/C=C/N(C)C)c1S(=O)(=O)N(C)CC(=O)NC1CCCCC1
→ /	-3	14	/	-2	0.72	/	/	-0.7	/
> c1ccc2oc(-c3ccc(Nc4nc(N5CCCCC5)nc(N5CCOCC5)n4)cc3)nc2c1
→ /	-5	-162	/	15	0.68	/	/	-0.3	/
> CCOc1ccc(C(=O)Nc2nnn(CC)n2)cc1
→ /	6	3.3	/	-13	0.69	/	/	-2.8	/
> CC(c1ccccc1)N1CCc2[nH]c(=S)[nH]c(=O)c2C1 (centres undefined)
→ 17	-6	4.1	i	-9	0.7	1.2	-2.7	0.0	15
> CC1=CC(C)(C)Nc2ccc(OC(=O)CN3C(=O)C4CCCCC4C3=O)cc21 (centres undefined)
→ /	-8	-53	/	18	0.73	/	/	-0.9	/
> CCN(CC)S(=O)(=O)c1cccc(NC(=O)c2cc(=O)[nH]c3ccccc23)c1
→ /	-4	-2.1	/	-3	0.63	/	/	-0.1	/

# Quoted from the listing.
# Beta cell apopt result of COc1ccc(C)cc1NC(=O)c1ccc(CN2CCN(c3ccccc3)CC2)cc1 stands at -5
# Beta cell apopt result of CCOC(=O)C1=C(C)NC(=O)CC1c1cc2c(cc1[N+](=O)[O-])OCO2 (centres undefined) stands at -2

# (continued)
# The line under a structure holds: Ecoli rRNA inh	Beta cell apopt	UCH37 inh	FGF22 binding	T cruzi inh	Ecoli growth	Ecoli rRNA inh RFP	MLL AF4-AF9 inh	Bfl-1 A1 inh	Ecoli rRNA inh OD600
> COc1ccccc1NC(=O)c1cc2cc(Br)ccc2oc1=N
→ -2	1	5.6	i	0	0.65	-4.6	5.1	2.0	1
> CCCCc1ccc(NC(=O)N[C@@H](CC(C)C)C(=O)O)cc1
→ 2	-9	1.4	i	-2	0.68	8.5	-4.9	-0.1	8
> COc1ccc(C(=O)C[n+]2ccc3c(c2)nc(-c2cc(OC)c(OC)cc2OC)n3C)cc1
→ -28*	1	0.0	i	3	0.64	-5.7*	-1.6	0.6	-5.8*
> O=C(NCCN1CCCCC1)Nc1ccccc1
→ /	-4	1.8	/	-26	0.67	/	/	1.4	/
> Cc1ccc(F)c(NC(=O)c2ccc(Cn3cc(Cl)cn3)cc2)c1
→ -32	-1	5.1	i	-2	0.66	1.8	-2.4	-2.2	-44
> COc1ccc(NS(=O)(=O)c2ccc(NS(=O)(=O)c3ccc(C)cc3)cc2)nn1
→ /	-3	5.1	/	4	0.78	/	/	0.1	/
> CC12CCC(C/C1=N/OC(=O)c1cccc([N+](=O)[O-])c1)C2(C)C (centres undefined)
→ -8	-2	/	i	-10	/	-0.3	12	0.4	-8
> CCCc1cc(=O)oc2cc(C)cc(OC(C)C(=O)NCC(O)c3ccccc3)c12 (centres undefined)
→ -10	1	-100	i	-6	0.71	-0.3	-7.8	-1.2	-22
> CCOC(=O)[C@@H]1[C@H]2COc3cc(OC)ccc3[C@@H]2N2C(=O)N(c3ccc(Cl)cc3)C(=O)[C@@]12C
→ -46	-1	3.4	i	-4	/	-2.2	1.8	1.8	-60
> COc1ccc(C(=O)Nc2cc3c(cc2C#N)OCO3)cc1S(=O)(=O)NCc1ccco1
→ /	3	1.1	/	-8	0.73	/	/	-2.5	/
> COc1ccc(C2CN=NC23CCCc2ccccc2C3=O)cc1 (centres undefined)
→ /	-2	-0.8	/	-15	0.7	/	/	1.1	/
> CC1=C(C(=O)c2ccccc2)C(c2cn(-c3ccccc3)nc2-c2ccc(Cl)cc2)NC(=S)N1 (centres undefined)
→ /	-1	5.0	/	60*	0.72	/	/	0.7	/
> O=C(NCc1cccs1)c1cc2ccccc2o1
→ /	0	1.8	/	-20	0.65	/	/	-4.0	/
> CC(=O)N=C1C=CC(=CN(O)C(C)(C)Cc2ccccc2)C=C1
→ 8	-3	3.4	i	-28	0.65	-7.6	0.9	0.0	14
> O=C(COC(=O)CNC(=O)c1ccccc1F)Nc1ncc(Cl)cc1Cl
→ 9	-6	1.5	i	/	0.71	-0.7	1.5	0.5	12
> COc1ccc(C2c3ccc4ccccc4c3Oc3ncn(CCCO)c(=N)c32)cc1OC (centres undefined)
→ -20*	7	/	i	11	/	0.9*	/	0.0	-10*
> N/C(=N\OC(=O)c1ccccc1)c1cccnc1
→ 4	-4	3.2	i	-9	0.72	-2.4	-3.2	-5.2	5
> O=C(c1ccc(CN2CCc3ccccc3C2)cc1)N1CCCCC1
→ /	-2	5.5	/	6	0.67	/	/	-0.9	/
> Cc1ccc(S(=O)(=O)n2nnc3ccccc32)c(C)c1C
→ 26	-1	-0.3	i	1	0.71	2.5	-1.7	0.8	20
> COc1ccc(C(=O)N2CCN(Cc3cc(OC)ccc3OC)CC2)cc1
→ 7	-2	5.8	i	-8	0.69	0.5	4.9	0.9	2
> Cc1cc(Nc2ccccc2)n(C(=O)c2ccc(Cl)cc2)n1
→ 5	4	-0.6	i	-12	0.66	-4.4	-6.8	0.3	4
> Cc1ccc(-c2nc(Cl)nc3ccccc23)cc1
→ -10	/	-10	/	5	0.68	-1.8	-3.4	-0.7	-3
> CCOC(=O)N1CCC(N2C(=O)c3ccc(C(=O)Nc4ccc(OC)c(OC)c4)cc3C2=O)CC1
→ 13	8	3.7	i	-13	0.7	0.0	-3.4	-0.4	23
> COc1cccc(NC(=O)CNS(=O)(=O)c2ccc3nc(C)sc3c2)c1
→ /	3	-4.8	/	-3	0.76	/	/	-0.2	/
> CN(Cc1cc([N+](=O)[O-])ccc1Cl)C(=O)C[n+]1ccccc1
→ 13	-1	1.5	i	-15	0.69	-0.4	4.1	-0.3	13
> CN(Cc1cnccn1)C(=O)c1cc(COc2cccc(C(F)(F)F)c2)on1
→ 8	/	0.7	i	-6	0.68	2.0	0.1	/	4
> CCCn1c(CCc2ccccc2)nnc1SCC(=O)N1CCCC1
→ /	-8	0.0	/	-8	0.76	/	/	0.7	/
> COC(=O)[C@@H](Cc1ccccc1)NC(=O)NCCc1c[nH]c2ccccc12
→ -20	-2	3.2	i	-4	0.68	-9.1	-0.7	1.2	-27
> COC(=O)C1CCN(C(=O)/C=C/c2ccc(OC)cc2)CC1
→ /	1	5.9	/	-3	0.68	/	/	-0.4	/
> CCOc1cccc(/C=N/N2CCN(c3ccc(Cl)cc3)CC2)c1O
→ 1	-2	/	i	14	/	-24	-1.6	0.2	5
> CCOC(=O)c1ccc(-c2nnc(-c3ccc(Cl)cc3Cl)o2)cc1
→ /	-3	1.0	/	-12	0.69	/	/	1.8	/
> CC(C)Oc1ccc(C(=O)N2CCN(C(=O)c3ccco3)CC2)cc1
→ 3	-6	6.2	i	-3	0.68	-0.5	-0.7	-0.4	8
> COc1ccc(CNCCCSc2ncccn2)c(OC)c1
→ 13	-1	-2.9	i	32	0.65	-0.4	11	-0.3	13
> Cc1nc2nc(C)c(NS(=O)(=O)c3ccc(CC(C)C)cc3)c(=O)n2[nH]1
→ 0	0	2.6	i	0	0.68	0.2	2.8	-0.3	-5
> CCOC(=O)c1c(-c2ccc(OCC)cc2)csc1NC(=O)CCN1C(=O)c2ccccc2C1=O
→ /	-1	3.3	/	14	0.66	/	/	1.8	/
> CSc1ccc(C(c2c(C(=O)O)[nH]c3ccccc23)c2c(C(=O)O)[nH]c3ccccc23)cc1
→ -1	4	-9.8	/	-11	0.7	1.0	-1.0	0.2	1
> Cc1ccc(-c2nn3c(C)nnc3s2)cc1NC(=O)CSc1ccc(Cl)cc1
→ /	4	1.9	/	4	0.71	/	/	-1.2	/
> CN1CCC(=O)N([C@H](CC#N)c2ccccc2)CC1
→ 11	-3	-1.8	i	-19	/	7.9	1.8	-1.4	15
> CCOc1cc(C#N)c(NC(=O)c2cccnc2Cl)cc1OCC
→ /	-7	3.5	/	7	0.72	/	/	0.9	/
> O=C(NNC(=O)c1ccc2c(c1)OCO2)NC12CC3CC(CC(C3)C1)C2
→ /	-3	1.4	/	5	0.69	/	/	0.6	/
> COc1ccc(/C(C)=N/NS(=O)(=O)c2ccccc2)c(OC)c1
→ 10	/	/	i	-7	/	-5.0	-1.2	-0.2	12
> Cc1cc(NC(=O)C(C)Oc2ccccc2)no1 (centres undefined)
→ 1	-5	1.1	i	-13	0.63	-2.5	-0.1	-0.5	10
> NC(=O)C1CCCN(CC(=O)Nc2ccccc2C(=O)NC2CC2)C1 (centres undefined)
→ 15	1	1.4	i	/	0.7	-2.3	-2.5	0.0	10
> C=CCNc1nc2c(c(=O)[nH]c(=O)n2C)n1CCCc1ccccc1
→ 9	4	/	i	-5	/	-1.3	-1.9	-1.8	6
